High-throughput results: PubChem BioAssay, Broad Institute
STAT3 binder: binds human STAT3 on microarray. P40763. Small molecule microarray, His-STAT3 binding, anti-His fluorescence. calls only. 0.2% of 17,000 active. AID 624138;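 active means compounds whose four printed spots each show fluorescence over background unusually high for their array block, chance value under 7%; compounds were printed on slides so no solution concentration is given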;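 further: about 2 pmol printed per array spot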
ID4 binder: ID4 (human) binding; AID 624137; 1.2% of 31,000 active; P47928; calls only; small molecule microarray, Flag-ID4 binding, fluorescence F/B;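 active means spot signal over background at p below 0.07 in all four prints; compounds were printed on slides so no solution concentration is given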;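 further: a binder raises fluorescence above local background on the spot; about 2 pmol printed per array spot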
Target sequence (P47928 whole entry, looked up): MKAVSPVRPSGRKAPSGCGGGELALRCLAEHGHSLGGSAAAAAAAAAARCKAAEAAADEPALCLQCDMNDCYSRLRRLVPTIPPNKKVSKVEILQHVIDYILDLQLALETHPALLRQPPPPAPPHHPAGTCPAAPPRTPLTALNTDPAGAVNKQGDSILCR
mut p53 SMM: binds human mutant p53 on microarray | small molecule microarray binding, anti-GST fluorescence | calls only | 0.4% of 17,000 active | AID 624136;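 active means compounds whose four printed spots each glow above background more than chance allows, each with a p-value under 7%; compounds were printed on slides so no solution concentration is given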;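 further: about 2 pmol printed per array spot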
Myc binder: c-Myc (human) binding; P01106; small molecule microarray, His-c-Myc binding, anti-His fluorescence; calls only; 1.5% of 17,000 active; AID 624141;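 active means spot fluorescence over background with P-value below 7% in all four replicate spots, showing protein binding; compounds were printed on slides so no solution concentration is given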;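 further: score is binary with 100 for all four spots passing and 0 otherwise; about 2 pmol printed per array spot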
Target sequence (P01106 whole entry, looked up): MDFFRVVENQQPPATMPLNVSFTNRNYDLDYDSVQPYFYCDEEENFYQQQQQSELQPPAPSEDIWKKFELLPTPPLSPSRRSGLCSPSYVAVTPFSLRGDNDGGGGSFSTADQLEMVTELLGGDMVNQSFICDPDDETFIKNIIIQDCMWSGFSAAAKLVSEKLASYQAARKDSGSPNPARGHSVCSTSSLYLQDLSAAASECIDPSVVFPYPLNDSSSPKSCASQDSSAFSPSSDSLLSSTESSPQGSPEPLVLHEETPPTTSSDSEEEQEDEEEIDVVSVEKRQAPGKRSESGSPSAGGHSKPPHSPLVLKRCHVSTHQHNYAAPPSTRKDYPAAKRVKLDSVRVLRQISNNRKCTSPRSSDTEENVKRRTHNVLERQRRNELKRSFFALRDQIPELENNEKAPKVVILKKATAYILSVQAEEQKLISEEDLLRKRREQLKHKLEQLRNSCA
Calls only; i = inactive; x = not tested or not shown; + = active, no number. The list is partial (hit frequency here may not be typical).

SMILES	STAT3 binder	ID4 binder	mut p53 SMM	Myc binder
COCCOC(=O)N1C(=O)[C@@]2(c3cc(C#CCC(C(=O)OC)C(=O)OC)ccc31)[C@H](c1ccc(OCCO)cc1)N1[C@H](c3ccccc3)[C@H](c3ccccc3)OC(=O)[C@H]1[C@@H]2C(=O)N1CCN(c2ncccn2)CC1	i	i	i	i
Cc1noc(C)c1S(=O)(=O)Nc1cccc2c1O[C@@H](CN(C)Cc1ccccc1)[C@@H](C)CN([C@@H](C)CO)C2=O	i	i	i	i
C[C@@H]1CCCCO[C@H](CN(C)C(=O)CCC(F)(F)F)[C@@H](C)CN([C@@H](C)CO)C(=O)c2cc(NC(=O)c3ccncc3)ccc2O1	i	i	i	i
COc1ccc(CN(C)C[C@H]2Oc3c(NC(=O)Nc4c(C)noc4C)cccc3C(=O)N([C@@H](C)CO)C[C@H]2C)cc1	i	i	i	i
C[C@@H]1CN([C@@H](C)CO)C(=O)c2cc(NC(=O)C3CCCCC3)ccc2O[C@@H](C)CCCCO[C@H]1CN(C)C(=O)Nc1ccccc1	i	i	i	i
Cc1noc(C)c1S(=O)(=O)Nc1cccc2c1O[C@H](CN(C)C(=O)Nc1ccc(C(F)(F)F)cc1)[C@H](C)CN([C@@H](C)CO)C2=O	i	i	i	i
COc1ccc(C(c2cn(C)c3ccccc23)c2cn(C)c3ccccc23)c(OC)c1OC	i	i	i	i
C[C@H](CO)N1C[C@H](C)[C@H](CN(C)S(=O)(=O)c2ccc(Cl)cc2)Oc2ccc(NC(=O)CCN3CCOCC3)cc2C1=O	i	x	i	i
COc1ccc(CCc2cc(OC)cc(=O)o2)cc1	i	i	i	i
Cc1sc2ncnc(SCC(=O)Nc3ccc4c(c3)OCCO4)c2c1C	i	i	i	i
C[C@@H]1CN([C@@H](C)CO)C(=O)CCCn2cc(nn2)CO[C@H]1CN(C)S(=O)(=O)c1ccc(Cl)cc1	i	i	i	i
COc1cc(/C(C)=C/C(C)(O)C(C)O)oc(=O)c1C (stereo unspecified)	i	i	i	i
C[C@H]1CN([C@@H](C)CO)C(=O)c2cccc(NS(=O)(=O)c3cccs3)c2O[C@@H]1CN(C)Cc1ccc(-c2ccccc2)cc1	i	i	i	i
COC(=O)c1cccc(OC(C)C(=O)O)c1 (stereo unspecified)	i	i	i	i
C[C@@H]1CN([C@@H](C)CO)C(=O)Cc2cc(NC(=O)Cn3cnnn3)ccc2O[C@@H]1CN(C)C(=O)NC1CCCCC1	i	i	i	i
C[C@@H]1CCCCO[C@@H](CN(C)C)[C@H](C)CN([C@H](C)CO)C(=O)c2cc(NS(=O)(=O)c3cn(C)cn3)ccc2O1	i	i	i	i
CNC[C@H]1Oc2c(NC(=O)c3cnccn3)cccc2C(=O)N([C@H](C)CO)C[C@@H]1C	i	i	i	i
C[C@@H]1CN([C@@H](C)CO)C(=O)Cc2cc(NC(=O)Cc3cn(C)c4ccccc34)ccc2O[C@@H]1CN(C)C(=O)NC1CCCCC1	i	i	i	i
C[C@H]1CN([C@@H](C)CO)C(=O)Cc2cc(NC(=O)C3CCCCC3)ccc2O[C@H]1CN(C)Cc1ccncc1	i	x	i	i
CC(C)NC(=O)Nc1ccc2c(c1)C(=O)N([C@H](C)CO)C[C@H](C)[C@@H](CN(C)S(=O)(=O)c1ccccc1)OCCCC[C@H](C)O2	i	i	i	i
O=C(Cn1c2ccccc2n2nc(-c3cccs3)nc12)c1ccc(Cl)cc1	i	i	i	i
COc1ccc(S(=O)(=O)N(C)C[C@H]2Oc3ccc(NC(=O)Nc4ccc(C(F)(F)F)cc4)cc3CC(=O)N([C@H](C)CO)C[C@@H]2C)cc1	i	i	i	i
C[C@@H]1CN([C@@H](C)CO)C(=O)c2cc(NC(=O)Nc3ccc(C(F)(F)F)cc3)ccc2O[C@@H](C)CCCCO[C@@H]1CN(C)C	i	i	i	i
CC(C(=O)Nc1cccnc1)N(c1ccc(Oc2ccccc2)cc1)S(C)(=O)=O (stereo unspecified)	i	i	i	i
Cc1noc(C)c1NC(=O)Nc1ccc2c(c1)C(=O)N([C@@H](C)CO)C[C@H](C)[C@H](CN(C)C(=O)NC1CCCCC1)O2	i	i	i	i
COc1ccc(S(=O)(=O)N(C)C[C@H]2Oc3c(NS(=O)(=O)c4cn(C)cn4)cccc3C(=O)N([C@@H](C)CO)C[C@@H]2C)cc1	i	i	i	i
COc1ccc(NC(=O)Nc2cccc3c2O[C@@H](CN(C)S(=O)(=O)c2ccc(Cl)cc2)[C@H](C)CN([C@H](C)CO)C3=O)cc1	i	i	i	i
COc1cc(O[C@@H]2O[C@H](CO)[C@@H](O)[C@H](O)[C@H]2O)c2c(=O)cc(-c3ccccc3)oc2c1OC	i	i	i	i
Cc1noc(C)c1S(=O)(=O)N(C)C[C@H]1Oc2ccc(NC(=O)CCN3CCOCC3)cc2CC(=O)N([C@H](C)CO)C[C@@H]1C	i	i	i	i
COC1CC(OC2CCC3(C)C(CCC4(O)C3CC(OC(=O)c3ccccc3)C3(C)C(O)(C(C)=O)CCC43O)C2)OC(C)C1OC1CC(OC)C(OC2OC(C)C(OC3OC(CO)C(O)C(O)C3O)C(OC)C2O)C(C)O1 (stereo unspecified)	i	i	i	+

A run of entries from further up, as a working copy:
SMILES	STAT3 binder	ID4 binder	mut p53 SMM	Myc binder
Cc1noc(C)c1NC(=O)Nc1ccc2c(c1)C(=O)N([C@@H](C)CO)C[C@H](C)[C@H](CN(C)C(=O)NC1CCCCC1)O2	i	i	i	i
COc1ccc(S(=O)(=O)N(C)C[C@H]2Oc3c(NS(=O)(=O)c4cn(C)cn4)cccc3C(=O)N([C@@H](C)CO)C[C@@H]2C)cc1	i	i	i	i
COc1ccc(NC(=O)Nc2cccc3c2O[C@@H](CN(C)S(=O)(=O)c2ccc(Cl)cc2)[C@H](C)CN([C@H](C)CO)C3=O)cc1	i	i	i	i
COc1cc(O[C@@H]2O[C@H](CO)[C@@H](O)[C@H](O)[C@H]2O)c2c(=O)cc(-c3ccccc3)oc2c1OC	i	i	i	i

Continuation:
SMILES	STAT3 binder	ID4 binder	mut p53 SMM	Myc binder
COc1ccc(OCC(=O)Nc2cc(Cl)ccc2N2CCOCC2)cc1	i	i	i	i
CNC[C@@H]1Oc2ccc(NC(=O)Nc3ccc(OC)cc3)cc2C(=O)N([C@H](C)CO)C[C@@H]1C	i	i	i	i
COc1cc(N)c(Cl)cc1C(=O)CCC1CCN(CCNS(C)(=O)=O)CC1	i	i	i	i
CCC(Oc1cccc(NC(=O)c2cccc(OC)c2)c1)C(=O)c1ccccc1 (stereo unspecified)	i	i	i	i
COc1ccc(F)cc1S(=O)(=O)n1cnc2ccccc21	i	i	i	i
C[C@H]1CCCCO[C@H](CN(C)C(=O)Cc2ccccc2)[C@@H](C)CN([C@@H](C)CO)C(=O)c2cc(NC(=O)c3ccncc3)ccc2O1	i	i	i	i
C[C@@H]1CN([C@@H](C)CO)C(=O)c2cc(NC(=O)CCN3CCOCC3)ccc2O[C@H]1CN(C)Cc1ccc(C(F)(F)F)cc1	i	i	i	i
C[C@@H]1CN([C@@H](C)CO)C(=O)CCCn2cc(nn2)CO[C@H]1CN(C)C(=O)CCC(F)(F)F	i	i	i	i
C[C@H](CO)N1C[C@H](C)[C@H](CN(C)Cc2ccc(-c3ccccc3)cc2)Oc2ccc(NS(C)(=O)=O)cc2CC1=O	i	i	i	i
C[C@H](CO)N1C[C@H](C)[C@@H](CN(C)C(=O)Nc2ccc(N3CCN(C)CC3)cc2)OCc2cnnn2CCCC1=O	i	i	i	i
COc1ccc(Nc2nc(N)nc(CSc3nncn3C)n2)cc1	i	i	i	i
C[C@@H]1CN([C@H](C)CO)C(=O)CCCn2nncc2CO[C@H]1CN(C)Cc1ccc(Oc2ccccc2)cc1	i	i	i	i
O=C(COc1ccc2oc3c(c2c1)CCCC3)NCCN1CCOCC1	i	i	i	i
CN(C)CCNc1oc(COc2ccc(Br)cc2)nc1C#N	i	i	i	i
CNC[C@@H]1Oc2ccc(NC(=O)C3CC3)cc2C(=O)N([C@H](C)CO)C[C@H]1C	i	i	i	+
COC(=O)C[C@H]1[C@]2(C)C3=C(C)[C@H](c4ccoc4)C[C@H]3O[C@@H]2[C@H](O)C2[C@](C)(C(=O)OC)C=CC(=O)[C@@]21C (stereo partly specified)	i	x	i	i
CC1OC(Oc2cc(O)c(C3OC(C)C(O)C(O)C3O)c3oc(-c4ccc(O)cc4)cc(=O)c23)C(O)C(O)C1O (stereo unspecified)	i	i	i	i
C[C@H](CO)N1C[C@H](C)[C@H](CN(C)Cc2ccc(Cl)c(Cl)c2)Oc2ccc(NC(=O)Cc3ccccc3)cc2C1=O	i	x	i	i
Cc1ccc(NC(=O)C(C)Sc2nnc(C)s2)cc1 (stereo unspecified)	i	i	i	i
Cc1ccc2nc(-c3ccncc3)cc(C(=O)NC(C)c3cnn(C)c3C)c2c1 (stereo unspecified)	i	i	i	i
CC1OC(Oc2cc(O)c3c(=O)c(OC4OC(CO)C(O)C(O)C4OC4OC(C)C(O)C(O)C4O)c(-c4ccc(O)cc4)oc3c2)C(O)C(O)C1O (stereo unspecified)	i	i	i	i
COc1ccc(S(=O)(=O)Nc2ccc3c(c2)C(=O)N([C@H](C)CO)C[C@@H](C)[C@@H](CN(C)S(=O)(=O)c2ccc(OC)cc2)O3)cc1	i	i	i	i
COc1ccc(CN(C)C[C@@H]2Oc3c(NC(=O)NC4CCCCC4)cccc3C(=O)N([C@H](C)CO)C[C@H]2C)cc1	i	i	i	i
O=C1CC(c2ccc(O)cc2)Oc2c1c(O)cc(O)c2C1C(=O)c2c(O)cc(O)cc2OC1c1ccc(O)c(O)c1 (stereo unspecified)	i	i	i	i
COc1cccc(CNc2nc3ccccc3n2CCN2CCOCC2)c1O	i	i	i	i
CC(C)NC(=O)N(C)C[C@@H]1Oc2ccc(NS(=O)(=O)c3cn(C)cn3)cc2CC(=O)N([C@H](C)CO)C[C@@H]1C	i	i	i	i
CC(C)NC(=O)Nc1cccc2c1O[C@@H](CN(C)Cc1ccccc1)[C@@H](C)CN([C@@H](C)CO)C2=O	i	i	i	i
COc1ccc(C#Cc2ccc3c(c2)[C@]2(C(=O)N3)[C@H](c3ccccc3OCCO)N3[C@H](c4ccccc4)[C@H](c4ccccc4)OC(=O)[C@H]3[C@@H]2C(N)=O)cc1	i	x	i	i
O=C(NC1CC1)C1=C[C@H](c2csc3ccccc23)C[C@H](OCc2ccc(CO)cc2)O1	i	i	i	i
Cc1noc(C)c1NC(=O)N(C)C[C@@H]1Oc2ccc(NC(=O)CCCN(C)C)cc2C(=O)N([C@@H](C)CO)C[C@@H]1C	i	i	i	i

Continuation.
SMILES	STAT3 binder	ID4 binder	mut p53 SMM	Myc binder
C[C@@H]1CN([C@@H](C)CO)C(=O)c2cccc(NS(=O)(=O)c3cccs3)c2O[C@H]1CN(C)Cc1ccc(Cl)c(Cl)c1	i	i	i	i
Cc1ccc(CCC(=O)Nc2ccccc2)o1	i	i	i	i
C[C@@H]1CCCCO[C@@H](CN(C)C)[C@H](C)CN([C@@H](C)CO)C(=O)c2cc(NC(=O)Nc3ccc(F)cc3)ccc2O1	i	i	i	i
O=C(O)CCC(=O)Nc1ccc(NC(=O)c2cccs2)cc1	i	i	i	i
C[C@@H]1CCCCO[C@H](CN(C)C)[C@@H](C)CN([C@H](C)CO)C(=O)c2cc(NC(=O)Nc3cccc4ccccc34)ccc2O1	i	i	i	i
Cc1noc(C)c1S(=O)(=O)N(C)C[C@H]1OCCCC[C@H](C)Oc2ccc(NS(C)(=O)=O)cc2C(=O)N([C@H](C)CO)C[C@@H]1C	i	i	i	i
C[C@@H]1CN([C@H](C)CO)C(=O)Cc2cc(NC(=O)Nc3ccc(F)cc3)ccc2O[C@@H]1CN(C)Cc1ccc2c(c1)OCO2	i	i	i	i
COc1ccc(CN(C)C[C@H]2Oc3c(NS(=O)(=O)c4ccc(OC)cc4)cccc3C(=O)N([C@H](C)CO)C[C@H]2C)cc1	i	i	i	i
Cc1noc(C)c1NC(=O)N(C)C[C@H]1Oc2ccc(NC(=O)CCCN(C)C)cc2C(=O)N([C@@H](C)CO)C[C@H]1C	i	i	i	i
COc1ccc(CCNC(=O)c2ccccc2Sc2ccccc2C#N)cc1OC	i	i	i	i
Cc1ccc(OCC(=O)Nc2ccc(C)cc2[N+](=O)[O-])c(C)c1	i	i	i	i
CN1C(=O)C(c2c[nH]c3ccccc23)=C(c2c[nH]c3ccccc23)C1=O	i	x	i	i
CCn1ncc(C2=NOC(C(=O)Nc3ccc(Cl)c(Cl)c3)C2)c1C (stereo unspecified)	i	i	i	i
C[C@@H]1CN([C@@H](C)CO)C(=O)c2cccc(NS(C)(=O)=O)c2O[C@@H]1CN(C)Cc1ccc(C(F)(F)F)cc1	i	i	i	i
C[C@H]1CCCCO[C@H](CN(C)C)[C@@H](C)CN([C@@H](C)CO)C(=O)c2cc(N(C)C)ccc2O1	i	i	i	i
